# Bioassay records deposited in PubChem by National Center for Advancing Translational Sciences (NCATS).
# PMP22 txn prim – Cell-based coincidence reporter assay to measure PMP22 gene transcription in S16 Pmp22-F2sN cells - Primary screen; S16 Pmp22-F2sN Schwann cells (luciferase reporters placed in the Pmp22 gene), FLuc/NLuc coincidence luminescence, 24 h; Potency, µM (series often up to 57.5 µM), for inactives: top-dose activity change, negative = inhibition, usual class: inhibitors; 43,000 compounds, 2% hits; AID 1508649, 2021; active = clear falling dose curves in both reporters; inconclusive = both reporters move, but less clearly or upward; inactive = either reporter flat; the % is the NLuc reporter signal; note: % is set by controls: 0 for no effect and ±100 for the full control effect; some results filed as inactive show a strong effect at the top dose
#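 qHTS, 1536-well. Cells seeded, compounds added by pin tool, 24 h 37C. Nano-Glo reagent 1 (lysis/FLuc), 10 min RT, read; Stop&Glo, 10 min RT, read NLuc.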
# HTT promoter inh – Primary qHTS for Identification of Small Molecule Inhibitors of Huntingtin Promoter Activity. 48,000 compounds, 0.93% hits. Potency, µM (titrated, usually from 57.5 µM), without a hit: at the top dose activity change, negative = inhibition, hits mostly inhibitors. HEK293 HTT promoter firefly luciferase reporter (activity 0% = vehicle and -100% = no light), 24 h; active = well fitted inhibition curve with a large enough effect; inconclusive = small, poorly fitted or top-dose-only effect; inactive = no such curve, though single readings can be large or run the other way; note: nearly all actives have a fitted effect of over 50% in size
#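 HEK293 luciferase promoter-reporter cells (2,500/well) plated 24 h, then compounds added at up to 57.5 uM final for 24 h at 37 °C. Firefly luminescence by Dual-Glo, normalized to vehicle (0%) and zero RLU (-100%).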
# An asterisk follows results filed as active; ? = inconclusive; . = no result given; [ ] = remark or other dose. Potency is the fitted concentration of half-maximal effect.
SMILES	PMP22 txn prim	HTT promoter inh
CCc1ccc(CNc2ncnc3c2nc2n3CCCC2)cc1	-32%	?
CCn1c(=O)c(C(=O)Nc2cc(OC)c(OC)c(OC)c2)nc2ccccc21	3%	9%
COc1ccc(CNc2ncnc3onc(C)c23)cc1	1%	?
COc1ccc(-c2cc(C)no2)cc1S(=O)(=O)N1CC(C)Oc2ccccc21 (stereo not given)	-3%	-12%
CCC1CCCCN1C(=O)Cn1c(=O)n(CC2CCC(C(=O)NC)CC2)c(=O)c2sccc21 (stereo not given)	-5%	-2%
Cc1ccccc1Cn1c(SCc2ccc(C(=O)NC(C)c3ccccc3)cc2)nc2ccncc21 (stereo not given)	3%	?
CCN1CCN(C(=O)c2ccc3c(c2)N(Cc2cc(C)ccc2C)C(=O)c2ccccc2S3=O)CC1 (stereo not given)	-28%	-19%
CSc1nn(Cc2cccc(F)c2)c(N(C(C)=O)C(C)=O)c1S(=O)(=O)c1ccccc1	?	?
COc1cccc(CNC(=O)c2ccc3c(c2)nnn3C2CCCC2)c1	-11%	-5%
Cc1ccc(CC(=O)N(Cc2nc(-c3ccc(C)cc3)no2)C(C)C)cc1	?	?
Fc1ccc(CNc2ncnc3onc(-c4ccc(F)cc4)c23)cc1	3%	?
CCN(Cc1ccccc1)C(=O)Cn1cc(S(=O)(=O)Cc2cccc(Cl)c2)c2ccccc21	?	-15%
COc1ccc(NC(=O)CN2C(=O)CCc3cc(S(=O)(=O)N4CCOCC4)ccc32)c(OC)c1	?	-23%
COC(=O)c1cc2oc3ccccc3c2n1Cc1cc(C)ccc1C	-17%	-10%
COc1ccc(C(=O)N(Cc2cc(OC)c(OC)c(OC)c2)c2ccccn2)cc1	-1%	?
COC(=O)c1cc(OC)c(OC)cc1NC(=O)c1ccc2c(c1)CCN2S(C)(=O)=O	?	-11%
CCCOc1ccc(C2CC(=O)Nc3c2c(=O)n(C)c(=O)n3C)cc1OC (stereo not given)	-14%	-16%
CN(C(=O)CCS(=O)(=O)c1cc2c(cc1Cl)NC(=O)CO2)C1CCCCC1	-17%	-7%
Cc1cc(OC(C)C(=O)Nc2sc3c(c2C(N)=O)CCCC3)ccc1Cl (stereo not given)	2%	8%
CCOc1ccccc1CNC(=O)C1CCN(S(=O)(=O)c2ccc3c(ccn3C)c2)CC1	-24%	-1%

# Among those listed so far, these contain a halogen.
SMILES	PMP22 txn prim	HTT promoter inh
CSc1nn(Cc2cccc(F)c2)c(N(C(C)=O)C(C)=O)c1S(=O)(=O)c1ccccc1	?	?
Fc1ccc(CNc2ncnc3onc(-c4ccc(F)cc4)c23)cc1	3%	?
CCN(Cc1ccccc1)C(=O)Cn1cc(S(=O)(=O)Cc2cccc(Cl)c2)c2ccccc21	?	-15%
CN(C(=O)CCS(=O)(=O)c1cc2c(cc1Cl)NC(=O)CO2)C1CCCCC1	-17%	-7%
Cc1cc(OC(C)C(=O)Nc2sc3c(c2C(N)=O)CCCC3)ccc1Cl (stereo not given)	2%	8%

# (next part)
SMILES	PMP22 txn prim	HTT promoter inh
C[C@H](c1ccc(F)cc1CCCC(=O)O)N(c1cc(F)ccc1F)S(=O)(=O)c1ccc(Cl)cc1	.	-25%
Cc1cc(C)cc(NC(=O)CCCc2nnc3n(CC(C)C)c(=O)c4sccc4n23)c1	3%	-10%
CCC1CN(C(=O)N2CCC(C(=O)NCc3cccs3)CC2)c2cc(C)ccc2O1 (stereo not given)	-21%	-30%
CCCN1CCN(CCNC(=O)Nc2cc(Cl)c(OC)cc2OC)CC1	1%	-15%
COc1ccc(Cn2ccc3nc(C)c(C(=O)N4CCN(c5ccc(F)cc5)CC4)cc3c2=O)cc1	?	-8%
COc1ccccc1N1CCN(c2nc3c(S(=O)(=O)c4ccc(C)c(C)c4)nnn3c3ccc(Cl)cc23)CC1	-2%	-8%
COc1ccc(NC(=O)c2cc(S(=O)(=O)N3CCCCCC3)cn2C)c(OC)c1	5%	-4%
CCOc1cc(C2c3c(-c4ccccc4O)n[nH]c3C(=O)N2CCc2ccccc2)ccc1O (stereo not given)	?	?
CCOC(=O)c1cnc2ccc(OCC)cc2c1N1CCN(c2ccccc2F)CC1	?	?
O=C(CSc1nccn1Cc1ccccc1)NCc1ccco1	?	24%
Cc1ccc(C)c(NC(=O)N2CCN(C(=O)c3nsc4ccccc34)CC2)c1	5%	?
COc1cc(OC)c(NC(=O)Cn2ncn3c(cc4cc(C)ccc43)c2=O)cc1Cl	0%	3%
COc1ccccc1Nc1cc(C(=O)NCc2cccs2)c2ccccc2n1	?	-18%
CCOc1ccc(N(Cc2cc3cc(C)ccc3[nH]c2=O)C(=O)c2cccc(Cl)c2)cc1	-3%	-1%
COc1cccc(C2CC(=O)N(c3ccc(F)cc3)C3=C2C(=O)OC3)c1OC (stereo not given)	-6%	16%
Cc1ccc(-n2nc(C)c3c(C)cc(=O)n(CC(=O)NC(C)C)c32)cc1	42%	6%
COC(=O)c1c(-c2cccs2)csc1NC(=O)c1ccc(Cl)cc1	6%	58%[activator]
Cc1ccc(NC(=O)Cn2c(=O)n(-c3ccccc3)c(=O)c3c4c(sc32)CCCC4)cc1	?	-7%
O=[N+]([O-])c1nccn1CO[C@@H](CO)[C@H](O)CO	.	-9%
Cc1cccc(OCCSc2nc3ccccc3n2CC(=O)N2CCCCC2)c1C	?	-42%

# Remaining list, next part.
SMILES	PMP22 txn prim	HTT promoter inh
COc1ccc(CNS(=O)(=O)c2ccc(-c3cc(C(F)(F)F)on3)s2)cc1OC	20µM*	?
Cn1c(=O)c2c(-c3ccccc3Cl)n(-c3cc(Cl)ccc3O)cc2n(C)c1=O	?	-15%
COc1ccc(CNCc2ccc(C(=O)O)s2)cc1	8%	-18%
COc1ccc(-c2nnc(SCC(=O)Nc3ccccc3C)o2)cc1OC	1%	5%
COc1cccc(-n2c(=O)c3c4c(sc3n(Cc3ccc(F)cc3Cl)c2=O)CCCC4)c1	-5%	19%
CCOc1ccc(-n2c(SCC(=O)Nc3cc(C)ccc3C)nc3c([nH]c4ccccc43)c2=O)cc1	?	-7%
CCN(CC)S(=O)(=O)c1ccc2oc(C(=O)Nc3ccc(Br)cc3F)c(C)c2c1	?	-14%
CCCCNc1nc(Oc2ccc(=O)[nH]n2)nc(N(C)C)n1	1%	-11%
N#Cc1nc(-c2ccc(COc3ccccc3)o2)oc1NCc1cccnc1	-20%	?
Cc1ccc(-c2nc(C)c(CCNC(=O)C(=O)Nc3ccc4c(c3)OCO4)s2)cc1	-7%	5%
COc1ccccc1CNC(=O)CCn1c(=O)c2ccccc2n(CC(=O)Nc2cccc(Cl)c2)c1=O	?	?
C=Cc1ccc(Cn2c(=O)n(-c3cccc(Cl)c3)c(=O)c3c4c(sc32)CN(C(C)=O)CC4)cc1	?	-36%
N#CC1(c2ccc(F)cc2)CCC(=O)CC1	.	0%
COCCCn1c(=N)c(C(=O)NC2CCCC2)cc2c(=O)n3cccc(C)c3nc21	?	2%
Cc1ccc(NC(=O)CCc2nnc3n(CC(C)C)c(=O)c4ccccc4n23)cc1C	?	-1%
O=C(Cn1c(=O)c2ccccc2n2nncc12)Nc1cccc(F)c1	-2%	-6%
COCc1cc(C)nc2sc3c(=O)n(-c4ccccc4C(F)(F)F)nnc3c12	-6%	-4%
COc1cccc(-c2cn3c(n2)sc2cc(C(=O)NC4CCCCC4)ccc23)c1	-21%	-29%
Cc1ccc(NC(=O)c2cnc(SCC(=O)N3CCOCC3)n(C)c2=O)cc1C	?	?
COc1ccccc1N1CCN(c2ccc(-c3nc(-c4ccccc4C)no3)cc2[N+](=O)[O-])CC1	-7%	27%

# New compounds follow
SMILES	PMP22 txn prim	HTT promoter inh
COc1ccccc1N1CCN(S(=O)(=O)c2c(C)nc3sccn3c2=O)CC1	-9%	-7%
COc1cccc(NC(=O)Nc2cc(-c3cn4cccnc4n3)ccc2C)c1	?	-18%
Cc1cc(C)c2nc(NC(=O)c3ccc(S(=O)(=O)N4CCCC4)cc3)sc2c1	-35%	-20%
O=c1n(Cc2ccc(F)cc2)c2ccccc2c2nc(-c3ccccc3)nn12	-6%	6%
Cc1ccc2nc(-c3ccc(Cl)c(NC(=O)c4ccc(Br)o4)c3)oc2c1	?	9%
C[N+]1(C)CCCC(OC(=O)C(O)(c2ccccc2)c2ccccc2)C1 (stereo not given)	.	-9%
CCOc1ccc(OCC)c(NC(=O)C2CCN(c3cnccn3)CC2)c1	6%	-15%
Cc1csc2nc(COc3ccc(NC(=O)c4ccccc4F)cc3)cc(=O)n12	-10%	0%
Cc1cccc(CNC(=O)c2oc3c(c2C)-c2nn(Cc4cccc(Cl)c4)cc2CC3)c1	-41%	-15%
O=C(CCSCc1ccccc1F)N1CCN(c2ccc(Cl)cc2)CC1	-6%	-29%
Cc1c(CNC2CCCCC2)c(C(=O)O)c(C)n1Cc1c(F)cccc1Cl	-20%	-11%
CCc1ccc(NC(=O)C(=O)NCCc2sc(-c3ccc(C)cc3)nc2C)cc1	15%	-9%
COc1ccc(NC(=O)CSc2nnc(-c3cccs3)o2)cc1	-6%	61%[activator]
CCc1nnc2c(Nc3ccccc3Br)nc3ccccc3n12	8%	-1%
CCC1CN(C(=O)N2CCC(C(=O)NCCc3ccc(OC)c(OC)c3)CC2)c2ccccc2O1 (stereo not given)	1%	-14%
C#CCSc1nc2sc3c(c2c(=O)n1-c1cccc(OC)c1)CCN(C(C)=O)C3	-27%	-23%
Cc1ccc(OCc2nc3ccccc3n2Cc2ccccc2Cl)cc1	-50%	-13%
Cc1ccc(CN2CCc3nc(N4CCN(c5ccccc5F)CC4)ncc3C2)s1	-22%	?
CCCCC(=O)N1c2ccccc2C(C)(c2ccccc2)CC1(C)C (stereo not given)	11%	-9%
CCCn1c(CCC(=O)Nc2cccc(C)c2C)nc2cccnc21	-3%	-5%

# In another format: results already given
Cc1c(CNC2CCCCC2)c(C(=O)O)c(C)n1Cc1c(F)cccc1Cl
  PMP22 txn prim: -20%
  HTT promoter inh: -11%

CCc1ccc(NC(=O)C(=O)NCCc2sc(-c3ccc(C)cc3)nc2C)cc1
  PMP22 txn prim: 15%
  HTT promoter inh: -9%

# Next compounds.
SMILES	PMP22 txn prim	HTT promoter inh
Cc1c(-c2ccccc2)c(=O)oc2c(CN3CCCC3)c(O)ccc12	5%	-1%
COc1cc(Cl)c(C)cc1NC(=O)Cn1c(C)c2cnn(-c3ccccc3)c(=O)c2c1C	-18%	-8%
CCOc1ccc(/C=C/c2nc(C#N)c(Nc3ccc(OCC)cc3)o2)cc1	-15%	0%
COc1ccc(NC(=O)C(c2ccc(C)cc2)N(C)C(=O)/C=C\c2ccc3c(c2)OCO3)cc1 (stereo not given)	5%	?
CCc1ccc(C(=O)c2cn(CC(=O)Nc3cccc(OC)c3)c3ccc(OC)cc3c2=O)cc1	-18%	?
CC(=O)Nc1ccc(S(=O)(=O)NCCS(=O)(=O)N2CCN(c3ccccc3F)CC2)cc1	-9%	?
Cc1cccc(NC(=O)CSc2nc(=O)n(Cc3ccco3)c3c2CCC3)c1C	?	-12%
Cc1nc2nc(NC(=O)C(C)C)[nH]n2c(=O)c1Cc1ccccc1	-4%	1%
COc1ccc(Cc2nc3ccc(C(=O)NCCc4ccc(OC)c(OC)c4)cc3o2)cc1	?	?
O=C(NC1CC(=O)N(c2cccc(F)c2)C1)c1ccc2c(c1)OCO2 (stereo not given)	5%	1%
O=C(Cn1nc(-c2ccc(Cl)cc2)ccc1=O)NCCc1ccccc1	-13%	-3%
COc1cccc(-n2cc(C(=O)NCCc3cccc(C)c3)c3ccccc3c2=O)c1	-29%	-15%
COc1ccc(N2CCN(S(=O)(=O)c3ccc4c(c3)C(C(C)C)C(=O)N4)CC2)cc1 (stereo not given)	?	?
COc1cc(C(=O)NCC(c2ccc(N(C)C)cc2)N2CCc3ccccc32)cc(OC)c1OC (stereo not given)	?	-21%
CCCCOc1ccc(OC(=O)c2sc3ncn(Cc4cccc(F)c4)c(=O)c3c2C)cc1	-24%	-7%
COc1cccc(NC(=O)C2CCCN(S(=O)(=O)c3cccc4nonc34)C2)c1 (stereo not given)	-29%	-9%
CCc1ccc(NC(=O)CN2C(=O)c3ccccc3Sc3ccc(C(=O)N4CCCC4)cc32)cc1	-8%	-17%
CCOc1ccc(/C=C/c2nc(C#N)c(N3CCC(C)CC3)o2)cc1	?	-19%
Cc1ccc(CNS(=O)(=O)c2cc3c(cc2C)N(C)CCO3)cc1	-14%	?
COc1ccccc1CCNC(=O)C(=O)NCC(c1cccs1)S(=O)(=O)c1cccs1 (stereo not given)	?	?
Cc1ccc(C)c(CN2C(=O)CSc3ccc(C(=O)NCc4ccccc4)cc32)c1	-8%	-19%
Cc1ccc(Cl)cc1NC(=O)C1CCN(S(=O)(=O)c2cccc3nonc23)CC1	?	-11%
O=C(CCc1ccc(O)cc1)c1c(O)cc(O)cc1O[C@@H]1O[C@H](CO)[C@H](O)[C@H](O)[C@H]1O	.	-7%

# Compounds as they come; about 2.4% have a hit in one of these screens.
